# MgrA-DNA mod: alters Staphylococcus aureus MgrA binding to DNA. fluorescence polarization. inhibition, %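 (about 10 µg/mL by stock and volumes)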. 84,000 compounds, 0.13% hits;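 active = above 50% in either of two replicates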;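 also: 0% = protein plus DNA without compound and 100% = DNA alone without protein; higher means less MgrA bound to DNA so lower polarization; one replicate is shown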
# S aureus helic: S. aureus DNA helicase inhibition; purified S. aureus helicase, fluorescence unwinding assay; about half of the hits fall short of the stated cut; inhibition, %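 (tested at about 80 µM)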; 120,000 compounds, 0.05% hits; AID 485395;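 active = both duplicates at 50% or more, or one of them with a favoured structure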;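 also: 0% = mean of negative control wells and 100% = mean of positive control wells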
# Starred values were filed as active, the others as inactive; . = not tested or not shown; & = joins results of further samples.
SMILES,MgrA-DNA mod,S aureus helic
O=C(c1ccc(Cl)nc1)N1CCN(C(c2ccccc2)c2ccccc2)CC1,.,18
Cn1c(-c2cc3ccc(OC(=O)c4ccco4)cc3oc2=O)nc2ccccc21,.,-16
CSc1ccccc1-c1nc(-c2ccccc2)no1,-0.7,1
O=C1C2=C(Nc3ccccc3S(=O)(=O)C2c2ccc(Cl)cc2)c2ccccc21 (configuration not stated),-0.1,-20
O=C(c1cc2sccc2n1Cc1ccccc1)N1CCCCC1,-0.8,-1
CN(C)CCN1C(=O)c2ccccc2C1=O,1.1,1
CSc1sc(C#N)c2c1C(=O)CC(C)(C)C2,-1.9,.
Cc1cc(C)nc(NS(=O)(=O)c2ccc(NC(=O)c3ccc(-c4ccccc4)cc3)cc2)n1,-1.2,.
Cc1ccc(S(=O)(=O)N(C(F)F)C(C)(C)C)cc1,.,-5
CNC(=O)CSc1nnc(Nc2ccc(C(C)C)cc2)s1,.,-12
CC(Sc1nc(-c2ccccc2)cc(C(F)(F)F)n1)C(=O)NCc1ccccc1 (configuration not stated),0.5,9
C=C(C)Cn1c(SCC(=O)N/N=C/c2ccc(OC)cc2)nc2ccccc2c1=O,.,-37
NC(=S)c1c(Cl)cc(C(F)(F)F)cc1Cl,1.1,.
COc1ccc(-n2nc(C(=O)NCC(=O)NC3CCCCCC3)c3ccccc3c2=O)c(OC)c1,.,18
Cc1cc(C(=O)CSc2nc3cc(S(=O)(=O)N(C)C)ccc3o2)c(C)n1-c1ccc2c(c1)OCO2,.,19
O=C(/C=C/N(c1ccccc1)c1ccccn1)C(F)(F)F,.,0
CC(=O)Nc1cc(OC(C)=O)c2nonc2c1OC(C)=O,11,3
CC1CCCN(C(=O)CN2CCN(C(=O)c3ccco3)CC2)C1 (configuration not stated),-0.5,-3
COc1ccc(/C=C(\C#N)S(=O)(=O)c2ccc(C(F)(F)F)cn2)cc1OC,0.6,.
CN(C)CCCNc1ncnc2c1c(-c1ccccc1)cn2-c1ccccc1,.,-18
COC(=O)c1cc(COC(=O)c2ccc3ncsc3c2)oc1C,.,3
COC(=O)c1sc2scc(C)c2c1C,2.4,.
CCC(=O)N1c2ccccc2NC2=C(C(=O)CC(c3ccco3)C2)C1c1ccco1 (configuration not stated),.,-43
O=C(Cc1ccc(-c2ccccc2)cc1)OCC(=O)N1CCCC1,.,-14
CC(CN1CCOCC1)OC(=O)C1c2ccccc2Oc2ccccc21 (configuration not stated),-11,8
O=C(NCc1cccnc1)c1cccc(NC(=O)N2CCCCc3ccccc32)c1,.,6
S=C1NC2(CCCCC2)NN1c1ccccc1,-1.3,-22
COc1ccc2c(CCl)cc(=O)oc2c1,0.8,-22
O=c1[nH]c2ccccc2c(=O)n1NS(=O)(=O)c1ccc2ccccc2c1,1.3,-19
O=C(CSc1nnc(CCCN2C(=O)c3cccc4cccc(c34)C2=O)n1-c1ccccc1)N1CCN(CCO)CC1,-0.5,.

# 4 entries from above, field by field:
structure: COC(=O)c1cc(COC(=O)c2ccc3ncsc3c2)oc1C
- MgrA-DNA mod: .
- S aureus helic: 3
structure: COC(=O)c1sc2scc(C)c2c1C
- MgrA-DNA mod: 2.4
- S aureus helic: .
structure: CCC(=O)N1c2ccccc2NC2=C(C(=O)CC(c3ccco3)C2)C1c1ccco1 (configuration not stated)
- MgrA-DNA mod: .
- S aureus helic: -43
structure: O=C(Cc1ccc(-c2ccccc2)cc1)OCC(=O)N1CCCC1
- MgrA-DNA mod: .
- S aureus helic: -14

# Random excerpt: two compounds from above.
SMILES,MgrA-DNA mod,S aureus helic
COC(=O)c1sc2scc(C)c2c1C,2.4,.
O=C(CSc1nnc(CCCN2C(=O)c3cccc4cccc(c34)C2=O)n1-c1ccccc1)N1CCN(CCO)CC1,-0.5,.

# Going on with the list:
SMILES,MgrA-DNA mod,S aureus helic
Cc1cc(-c2cccs2)c2c(N)c(C(=O)c3ccc4c(c3)OCO4)sc2n1,.,-98
CC(COc1ccc(C(C)C)cc1)NC(=O)c1cccs1 (configuration not stated),.,9
CN(C)CCN1C(c2ccccc2)=CC(=C2C(=O)N(C)C(=O)N(C)C2=O)C2=C1CCCC2,.,5
CCOC(=O)c1ccc2c(c1)[C@@H]1C=CC[C@@H]1[C@H](C(=O)OCC)N2,.,0
O=C(Cc1cccs1)NCCC1=CCCCC1,1.3,4
CN(C(=O)CSc1nc2ccccc2[nH]1)C1CCS(=O)(=O)C1 (configuration not stated),.,-2
FC(F)(F)c1n[nH]c(=S)n1/N=C/c1c[nH]c2ccccc12,-3.0,-5
Cc1cc(C(F)(F)F)nn1CC(=O)N(C)c1ccccc1,-0.8,-2
COC(=O)C1=C(C)N(C)C(C)=C(C(=O)OC)C1c1ccccc1,.,-9
N#CCC(=O)c1ccc(OC(F)(F)F)cc1,-6.3,.
CCC(=O)Nc1nc2ccc(Cl)cc2s1,.,15
CC(C)(CO)NC(=O)C1CCCNC1=O (configuration not stated),.,2
COc1ccccc1C/C(C)=N/NC(N)=S,.,9
Oc1ccccc1N=Cc1sc2ccccc2c1Cl,0.7,-20
Oc1ccc(/C=N/c2c(-c3ccco3)nc3ccc(Cl)cn23)cc1,.,-19
Cc1cccc(NC(=O)C(F)(F)F)c1C,0.9,13
CN(C)C1NC(=O)c2cc(-c3ccccc3)sc2N1 (configuration not stated),.,3
CN1C(=O)C(Cc2ccccc2)(c2ccccc2)c2ccccc21 (configuration not stated),1.2,.
COC(=O)c1nc2ccccc2n1Cc1ccc(C)cc1,.,-12
O=C(Nc1ccc2n[nH]nc2c1)c1sc2ccccc2c1Cl,0.4,.
O=C1CCC(=O)N1CC(O)CCOc1ccc(OCCC(O)CN2C(=O)CCC2=O)cc1 (configuration not stated),0.0,9
COC(=O)Oc1ccc2c(=O)c(-c3ccccc3Cl)coc2c1,.,-3
COc1cccc(C(c2nnnn2CCC(C)C)N2CCN(Cc3ccccc3)CC2)c1OC (configuration not stated),2.1,5
CCN(CC)c1cc(C(F)(F)F)nc(-c2ccccn2)n1,-0.8,.
CC1=C/C(=N\Nc2ccnc3cc(Cl)ccc23)CC1,.,-6
CNC(=O)c1cccn1-c1nnc(N2CCCCC2)s1,.,-18
S=C(NCc1ccco1)N1CCN(c2cccc(Cl)c2)CC1,5.2,7
Cc1ccc(C(c2nnnn2Cc2ccccc2)N2CCC(C)CC2)cc1 (configuration not stated),-0.2,2
Cc1ccc(NC(=O)Nc2sc(=S)n(C)c2C)cc1,2.8,8
COc1cccc(NC(=O)CCCC(=O)Nc2cccc(OC)c2)c1,0.6,26
Cc1ccccc1-n1cc[nH]c1=S,.,5
O=C(CN1CCN(c2ccccc2)CC1)NC1CC1,-2.2,7
C=CCn1c(COc2ccc(CC)cc2)nnc1SCc1nc2sc(C)c(C)c2c(=O)[nH]1,.,-7
N#CCCn1c2c(ccc1=O)CCCC2,4.7,.
COCCCNC(=S)Nc1cccc(Cl)c1C,1.6,.
Cc1ccc(-n2nc(C)cc2C)nn1,.,21
COC(=S)Nc1cc(Cl)cc(Cl)c1,-1.6,.
O=C(Cc1ccc2c(c1)OCCO2)N1CCN(C(=O)C2CCCO2)CC1 (configuration not stated),.,-8
N#Cc1ccccc1COC(=O)COc1ccccc1C#N,.,-17
Cc1nc2c(C(=O)NC3CC3)c[nH]n2c(=O)c1Cc1ccccc1F,1.5,-12
C/C(=N/NC(=O)CCc1ccccc1)C1CC1,-2.7,1
CCCCON1C(=O)c2cccc3cccc(c23)C1=O,1.3,10
Nc1nc2c(F)cc(F)cc2s1,3.6,.
CCN(CC)C(=O)C1C(=O)NC23CCCCC2C1c1ccccc1O3 (configuration not stated),.,25
COc1ccc(C2C(C(=O)Nc3ccccc3F)c3ccccc3C(=O)N2C)cc1 (configuration not stated),.,15
CS(=O)Cc1cc(Cl)nc(-c2ccncc2)n1 (configuration not stated),-0.8,.
Cn1ccnc1SCC(=O)NC(=O)NCc1ccccc1,.,-13
O=C(NNc1nc2cc3c(cc2s1)OCCO3)c1ccc(F)cc1,.,11
CCOc1cccc2cc(C(C)N)oc12 (configuration not stated),.,9
CCn1cc2nc(SCC(=O)NCc3ccccc3)n(Cc3ccc(OC)cc3)c(=O)c2n1,.,5
# (cont.)
SMILES,MgrA-DNA mod,S aureus helic
CCn1nnc2c(Nc3ccc(Cl)c(Cl)c3)ncnc21,.,6
O=C(Nc1ccc(F)cc1)Nc1ccc2[nH]c(=O)[nH]c2c1,.,-7
O=C(Nc1ccc(F)c(F)c1)C1CCC1,3.4,.
Cc1cc(NC(=O)CCCC(=O)c2ccccc2)n[nH]1,-1.8,13
Cc1noc(C)c1C(=O)NCc1ccc(S(N)(=O)=O)cc1,-0.8,4
S=C(NCc1ccco1)NC1CCCCC1,-2.0,3
O=C(CCN1C(=O)C2C3C=CC(C3)C2C1=O)N1CCC2(CC1)OCCO2 (configuration not stated),.,-1
Ic1ccc(OCCCCn2ccnc2)cc1,-0.2,10
COc1ccc(NCC(=O)N/N=C2\CCCC(C)C2)cc1 (configuration not stated),.,-14
CC1=C(CCN2CCN(CCO)CC2)C(C)(C)CCC1,-7.0,26

# Quoted from the entries so far for reference:
SMILES,MgrA-DNA mod,S aureus helic
Cc1ccc(-n2nc(C)cc2C)nn1,.,21
COC(=S)Nc1cc(Cl)cc(Cl)c1,-1.6,.

# (more compounds)
SMILES,MgrA-DNA mod,S aureus helic
COc1ccc(/C(C)=N/O)cc1OC,-0.5,.
O=C1OC(c2ccccc2)=N/C1=C\c1cn(-c2ccccc2)nc1-c1cc2ccccc2o1,.,-173
Cc1oc2nc[nH]c(=O)c2c1C(=O)NCCC(c1ccccc1)c1ccccc1,.,-6
CCSc1nc2sc3c(c2c(=O)n1-c1ccccc1)CCN(C(C)=O)C3,-0.6,6
Cc1c(Cl)cccc1NC(=O)c1cc(-c2ccco2)nc2ccccc12,-3.3,23
Cc1cc(C)c2c(N)c(C(=O)NC3CCCC3)sc2n1,-2.5,0
Cc1ccccc1NC(=S)N=Nc1c(O)n(CN2CCN(c3ccccc3)CC2)c2ccccc12,.,2
N#Cc1ccccc1S(=O)(=O)N1CCCC1c1ccc2c(c1)OCCCO2 (configuration not stated),.,0
C=CCc1cccc(/C=N/NC(=O)c2ccccc2)c1O,1.1,21
O=C1NCC2=C1C(c1ccccc1)Nc1ccccc1N2 (configuration not stated),.,-12
CCOC(=O)c1cc(CC)sc1/N=C/c1c(O)[nH]c(=O)[nH]c1=O,.,-16
Cc1ccc(N=C2NC(=O)C(Cc3ccc(Cl)cc3)S2)cc1 (configuration not stated),-1.1,.
CCC(=O)Nc1cc(C)c(O)c(-c2nc3cc(C)ccc3o2)c1,-3.6,2
FC(F)(F)c1ccnc(N2CCOCC2)n1,-1.2,.
O=C1C(=Cc2ccco2)C(=O)c2ccccc21,.,-15
C=CCn1c(SCC(=O)NCc2ccc(F)cc2)nc2ccccc21,.,14
CC(C)C1Oc2ccccc2N(CC(=O)N(CCCN2CCOCC2)Cc2ccc(F)cc2)C1=O (configuration not stated),1.2,-16
Cc1ccc2nc(-c3ccc(-n4ccc(=O)cc4)cc3)sc2c1,-1.0,-16
O=C(C(c1ccccc1)N1Cc2ccccc2C1=O)N1CCN(c2ccccc2F)CC1 (configuration not stated),.,-4
CSc1sc(C(=O)O)c(-c2ccccc2Cl)c1C#N,.,21
O=C(Nc1cc(N2CCCCC2)ncn1)NC1(C(F)(F)F)Oc2ccccc2O1,.,11
N#CC(=NCc1ccc(Cl)cc1)C1=C(O)c2ccccc2C1=O,-0.9,.
Cc1cccc2nc(CN3CCN(Cc4ccc5c(c4)OCO5)CC3)cc(=O)n12,.,-3
CCCN(CCC)S(=O)(=O)Cc1ccccc1Cl,3.8,6
COc1ccc(NC(=O)c2ccco2)cc1NC(=O)c1cc2ccccc2o1,1.3,-11
Cc1cc2oc(C(=O)O)cc(=O)c2cc1C,-6.1,16
O/N=C/c1ccc2cccc(OCc3ccccc3)c2n1,.,13
CCN(Cc1ccccc1)S(=O)(=O)c1cn(C)c(=O)n(C)c1=O,.,-1
COC(=O)c1sccc1NC(=O)Cc1noc2ccc(C)cc12,-2.9,7
CC(C)(C)C(=O)Nc1c2c(nn1-c1cccc(Cl)c1)CSC2,.,0
Cc1ccc(S(=O)(=O)N/N=C/c2cc(C)n(-c3ccc(N(C)C)cc3)c2C)cc1,.,-1
Cc1ccc(OC(C)C(=O)NCCCN2CCOCC2)cc1C (configuration not stated),0.6,15
Cc1ccc(C=C2C(=O)OC(C)(C)OC2=O)s1,.,30
C/C=C/C(=O)Nc1ccc(Cl)c(Cl)c1,2.5,4
CC(=O)OCc1cc(=O)n2oc(C)cc2n1,.,3
CCOC(=O)NC1=C(C#N)C=Nc2ccccc2N1,0.4,.
Cc1ccc(C(C(=O)NC2CCCCC2)N(C(=O)C2COc3ccccc3O2)c2ccc3c(c2)OCO3)o1 (configuration not stated),0.6,18
O=S(=O)(c1ccc(F)cc1)N(CCCN1CCOCC1)Cc1cccs1,.,12
CCCCOc1cccc2c1CCN(C)C2=O,.,6
Cn1c(SCC#N)nc2c(c1=O)C1(CCCCC1)Cc1ccccc1-2,4.5,3

# Complete entries, quoted from the list. Screens in order: MgrA-DNA mod, S aureus helic
# Results for `Cc1ccc(OC(C)C(=O)NCCCN2CCOCC2)cc1C` (configuration not stated) = 0.6, 15
# Results for `C/C=C/C(=O)Nc1ccc(Cl)c(Cl)c1` = 2.5, 4
# Results for `Cc1ccc(S(=O)(=O)N/N=C/c2cc(C)n(-c3ccc(N(C)C)cc3)c2C)cc1` = ., -1
# Results for `CCOC(=O)NC1=C(C#N)C=Nc2ccccc2N1` = 0.4, .
# Results for `Cn1c(SCC#N)nc2c(c1=O)C1(CCCCC1)Cc1ccccc1-2` = 4.5, 3

# More entries:
SMILES,MgrA-DNA mod,S aureus helic
COc1ccc(N2CC(C(=O)NC3CC(C)(C)NC(C)(C)C3)CC2=O)cc1 (configuration not stated),.,-17
COC(=O)c1sc(Nc2ccccc2)nc1C,3.5,10&2&17
Cc1c(C(=O)NCCN2CCN(Cc3ccccc3)CC2)sc2nc3n(c(=O)c12)CCC3,.,7
O=C(CN1CCCC1c1cccs1)Nc1ccccc1C(=O)NC1CC1 (configuration not stated),.,12

# Assay outcomes from PubChem BioAssay.

# A portion of the library; rates above refer to the full screens.
